Bioassay records from PubChem BioAssay.
VDR inh: inhibitors of human vitamin D receptor | 400,000 compounds, 0.93% hits | P11473 | Potency, µM, for inactives: max response, negative = inhibition, usual class: inhibitors | VDR-SRC2-3 peptide fluorescence polarization, 2 h; active = well fitted inhibition curve with a large enough effect; inconclusive = small, poorly fitted or top-dose-only effect, or another doubt; inactive = no such curve, though single readings can be large or run the other way; also: series mostly up to about 120 µM
Target sequence (P11473 whole entry, looked up): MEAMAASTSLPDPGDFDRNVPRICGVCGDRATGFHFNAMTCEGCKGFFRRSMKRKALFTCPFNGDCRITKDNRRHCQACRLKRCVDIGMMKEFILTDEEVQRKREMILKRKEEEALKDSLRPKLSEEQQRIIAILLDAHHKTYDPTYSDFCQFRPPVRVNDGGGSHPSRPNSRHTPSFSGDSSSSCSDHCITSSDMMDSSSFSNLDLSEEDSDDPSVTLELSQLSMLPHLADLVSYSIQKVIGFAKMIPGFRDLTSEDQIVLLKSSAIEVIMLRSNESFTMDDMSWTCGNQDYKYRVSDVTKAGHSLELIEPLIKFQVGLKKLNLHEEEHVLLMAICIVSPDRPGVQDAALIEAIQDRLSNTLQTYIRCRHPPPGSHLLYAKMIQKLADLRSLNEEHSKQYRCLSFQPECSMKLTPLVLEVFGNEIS
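Measured by FP: displacement of SRC2-3 coactivator peptide from VDR by library compounds, following a two-hour ambient incubation.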
An asterisk follows results filed as active; ? = inconclusive. % is scaled to controls: 0 for no effect and ±100 for the full control effect; potency is read from the fitted curve at half-maximal effect. An excerpt. The share of hits here may be higher or lower than overall.

| Structure | VDR inh |
| --- | --- |
| O=C(O)CC(CC(=O)O)(C(=O)O)c1ccccc1 | 5% |
| O=C(CNCC1(N2CCOCC2)CCCCC1)Nc1ccc(Cl)cc1 | -5% |
| Cc1ccc(C2C3=C(CCCC3=O)OC3=C2C(=O)CCC3)cc1 | -23% |
| COc1cc(NC(=O)c2cc(-c3cccs3)on2)cc(OC)c1OC | -9% |
| Cc1nc2c(c(=O)n1CCC(C)C)c1nc3ccccc3nc1n2CC1CCCO1 (stereo unspecified) | 14% |
| O=C(O)CC(c1ccc(Cl)cc1)N1C(=O)CCC1=O (stereo unspecified) | -2% |
| Cc1nn2c(=O)cc(CSc3nc4ccccc4[nH]3)nc2s1 | -9% |
| COc1ccc(C2=NO[C@@H]3C(=O)N(c4ccc(C)cc4C)C(=O)[C@H]23)cc1OC | -11% |
| O=C(NNc1nc2cc3c(cc2s1)OCO3)c1ccccc1 | -13% |
| CCc1ccc(NC(=O)c2ccc(F)c(S(=O)(=O)NCc3ccc(Cl)c(Cl)c3)c2)cc1 | 11% |
| CCc1ccccc1NC(=O)Cn1c(=O)n(CC2CCC(C(=O)NCCc3ccccc3)CC2)c(=O)c2ccccc21 (stereo unspecified) | -18% |
| CC(C)[C@H](NC(=O)c1ccccc1)C(=O)NCCc1ccccc1 | 9% |
| COc1ccc(S(=O)(=O)N(Cc2cc3ccc(OC)cc3[nH]c2=O)CC2COCCO2)cc1 (stereo unspecified) | 4% |
| CCOC(=O)N1CCN(c2cc(=O)n(-c3cccc(C)c3)c(=O)[nH]2)CC1 | -19% |
| COc1ccc(Nc2nc(-c3ccc(OC)cc3)cs2)cc1 | -18% |
| c1ccc(-c2ccc(CN3C[C@@H]4C(c5ccccc5)C5(c6ccccc6)CC4(C5)[C@H]3c3ccccc3)cc2)cc1 (stereo partly specified) | 0% |
| COc1cccc(Nc2nc(C)cc(C)c2C#N)c1 | -4% |
| COc1ccc(/C=N/NC(=O)C[n+]2ccccc2)c(OC)c1 | -9% |
| CC1NC(=S)N(Cc2ccccc2)C1=O (stereo unspecified) | -19% |
| NC(=O)c1ccc(NC(=O)COC(=O)CCN=C2NS(=O)(=O)c3ccccc32)cc1 | 12% |

Next entries
| Structure | VDR inh |
| --- | --- |
| Cc1ccc(C(=O)c2c(NC(=O)c3ccncc3)sc3c2CCCC3)cc1 | 1% |
| O=c1[nH]nnc2cc(Cl)ccc12 | -1% |
| CCN(CC)S(=O)(=O)c1ccc(Oc2ccc(S(=O)(=O)N(CC)CC)cc2)cc1 | -17% |
| CCOC(=O)c1ccc(NC(=O)C2CCCN(S(=O)(=O)c3cnc[nH]3)C2)cc1 (stereo unspecified) | 8% |
| COc1cc(/C=N\NC(=O)c2cccc(Cl)c2)ccc1Oc1ccc([N+](=O)[O-])cn1 | 9% |
| Cc1ccc2nc(SCC(=O)NCc3ccco3)c(C)cc2c1 | -13% |
| COCCn1c(SCC(=O)Nc2c(C)n(C)n(-c3ccccc3)c2=O)nc2ccccc2c1=O | 1% |
| COc1cccc(-c2nc(NCc3cnc(C)cn3)c3ccccc3n2)c1 | 0% |
| C/C(=N\Nc1nc(N2CCOCC2)nc(N2CCOCC2)n1)c1ccc([N+](=O)[O-])cc1 | 0% |
| CCN1CCN(CCCNC(=O)c2cc3c(=O)n(C)c4ccccc4c3s2)CC1 | 8% |
| COc1ccccc1/C=C/C(=O)Nc1cccnc1 | -2% |
| COc1ccccc1N1CCN(C(=O)c2cc3c(=O)n(C)c4ccccc4c3n2C)CC1 | -12% |
| COc1cccc(C(=O)N2c3ccccc3Sc3ccccc32)c1 | -17% |
| CC(C)(C)NC(=O)Nc1ccc2nccnc2c1 | -8% |
| Cc1onc(-c2ccc(Cl)cc2Cl)c1-c1csc(N/N=C/c2ccccc2)n1 | 26% |
| CC(C)CCn1c(SCC(=O)N2CC(=O)Nc3ccccc32)nc2scc(-c3cccs3)c2c1=O | 14% |
| CN(C)/C=N/c1ncnc2c1cnn2-c1ccc(C(F)(F)F)cn1 | -6% |
| Fc1ccc(OCCOCCN2CCNCC2)cc1 | -7% |
| COC(=O)c1ccccc1-n1c(CCC(=O)O)ccc1-c1ccc(F)cc1 | -12% |
| Nc1nnc(SCCN2C(=O)c3ccccc3S2(=O)=O)s1 | 3% |

Looked up by compound from the list above:
| Structure | VDR inh |
| --- | --- |
| CCOC(=O)c1ccc(NC(=O)C2CCCN(S(=O)(=O)c3cnc[nH]3)C2)cc1 (stereo unspecified) | 8% |
| COCCn1c(SCC(=O)Nc2c(C)n(C)n(-c3ccccc3)c2=O)nc2ccccc2c1=O | 1% |
| COc1cc(/C=N\NC(=O)c2cccc(Cl)c2)ccc1Oc1ccc([N+](=O)[O-])cn1 | 9% |
| CC(C)CCn1c(SCC(=O)N2CC(=O)Nc3ccccc32)nc2scc(-c3cccs3)c2c1=O | 14% |
| COc1ccccc1/C=C/C(=O)Nc1cccnc1 | -2% |
| CC(C)(C)NC(=O)Nc1ccc2nccnc2c1 | -8% |

Later entries
| Structure | VDR inh |
| --- | --- |
| CCCCCCCCCCCCCCCC[n+]1ccc(/C=N/O)cc1 | 5% |
| CCC(C)NS(=O)(=O)c1ccc(N)cc1 (stereo unspecified) | -11% |
| C[C@]1(O)CC(=O)C=C[C@H]1Nc1ccccc1 | -2% |
| Cc1ccc(NC(=O)CCNS(=O)(=O)c2ccc3c(c2)CCC(=O)N3)cc1F | -3% |
| O=C(CSc1nnc(-c2cccs2)o1)c1cccs1 | 19% |
| Cn1cc(S(=O)(=O)N2CCc3ccccc32)cc1C(=O)NC1CCCCC1 | -16% |
| Cc1noc(C)c1C(=O)OCC(=O)/C=C1/N(C)c2ccccc2C1(C)C | -12% |
| COc1cc(CC(=O)OCc2ccccc2F)cc(OC)c1OC | 8% |
| COc1cc(OC)c(OC)cc1CNc1cc(C)ccc1OC | 17% |
| CC1(C)CC(C(N)=S)CCO1 (stereo unspecified) | 10% |
| Cc1cc(NC(=O)c2ccccc2)ncc1NC(=O)c1cccs1 | -13% |
| Cn1c(=O)c2sccc2n2c(CCC(=O)N3CCN(c4ccccc4)CC3)nnc12 | -16% |
| COc1ccc(OC)c(NC(=O)CSc2nc(N3CCOCC3)nc(N3CCOCC3)n2)c1 | -12% |
| O=C(O)Cn1c2ccccc2c2n[nH]c(=S)nc21 | -15% |
| CC(=O)c1ccc(NC(=S)NCc2cccnc2)cc1 | -9% |
| COc1ccc(C(=S)N2CCNCC2)cc1 | -2% |
| Cc1cccc2cc(CN(CC3CCCO3)C(=O)c3cccs3)c(=O)[nH]c12 (stereo unspecified) | 0% |
| O=C(O)CSc1nnc(-c2ccccc2Br)n1-c1cccc(C(F)(F)F)c1 | ? |
| CCc1ccc(-n2nc(CO)c(C(=O)NCc3cccs3)n2)cc1 | 6% |
| CC(=NNC(=O)c1ccncc1)c1ccccc1O | 11% |

Next part:
| Structure | VDR inh |
| --- | --- |
| COc1ccccc1NC(=O)C(C)OC(=O)CSCC(=O)Nc1ccc(C)cc1C (stereo unspecified) | 6% |
| Cc1cc(C(F)(F)F)nc(CCNC(=O)C2CCC(=O)N(Cc3cccc(F)c3)C2)n1 (stereo unspecified) | -6% |
| CCCCN(C(=O)CC1CCCC1)c1c(N)n(CCC)c(=O)[nH]c1=O | 1% |
| CCCCCC(=O)NN=C1CCN(Cc2ccccc2)CC1 | 8% |
| COc1ccc(CCNC(=O)c2cc3c(=O)n4ccccc4nc3n2C)cc1 | 16% |
| CCc1cccc(NC(=O)CN2CCCN(Cc3cccc(C)c3)S2(=O)=O)c1 | 15% |
| COc1cc2c(cc1O)CCN(C(=O)c1ccco1)C2C (stereo unspecified) | 11% |
| Cc1c(S(=O)(=O)Nc2cccc3ccccc23)c(=O)n(C)c(=O)n1C | -3% |
| CC(=O)Nc1ccc2c(c1)nc1n2CCN(C2CCCCC2)C1 | -7% |
| CC[C@@H](NC(=O)Cn1cc(C)c(=O)[nH]c1=O)c1ccccc1 | -3% |
| Cc1occc1C(=O)NC(C)C1CCCO1 (stereo unspecified) | 3% |
| COc1ccc(N2CCN(C(=O)c3ccc4[nH]c(C)c(C)c4c3)CC2)cc1 | -11% |
| O=C1c2ccccc2C(=O)C12OC2c1ccc(Cl)cc1Cl (stereo unspecified) | 89µM* |
| CCc1ccccc1NC(=S)N(CCN(C)C)C(C)c1ccco1 (stereo unspecified) | -5% |
| COC(=O)CSc1[nH]c(=O)cc(C)c1C#N | -13% |
| Cc1cccc(N2CCN(C(=O)Cn3sc4nc(C)cc(C)c4c3=O)CC2C)c1 (stereo unspecified) | 16µM* |
| COc1ccc(CNC(=O)CN(C(=O)CCC(=O)Nc2nccs2)c2ccc(C)cc2)cc1 | 11% |
| Cc1ccccc1N(CC(=O)NC(C)(C)C)C(=O)CCC(=O)Nc1nccs1 | 1% |
| CSc1ncc(Cl)c(C(=O)Nc2c(C(=O)c3ccc(C)c(F)c3)oc3ccccc23)n1 | -4% |
| CNC(=O)C1=C(C)n2c(nc3ccccc32)NC1c1ccc(OC)cc1 (stereo unspecified) | 12% |

Next section
| Structure | VDR inh |
| --- | --- |
| CN(C)S(=O)(=O)NC(c1ccccc1)c1ccccc1 | -6% |
| O=C(COc1ccc2c3c(c(=O)oc2c1)CCC3)NCc1ccncc1 | -20% |
| COc1ccccc1/C=C1\SC(=S)N(CCC(=O)N2CCCCC2CCO)C1=O (stereo unspecified) | -15% |
| O=C(CCC1CCCN(C(=O)Cc2ccc(F)cc2)C1)N1CCN(c2ccccn2)CC1 (stereo unspecified) | -3% |
| O=C(Nc1ccc(S(=O)(=O)N2CCCC2)cc1)C1CCCN1C(=O)c1cccs1 (stereo unspecified) | -7% |
| Nc1nc(NCc2ccccc2)nc(NCc2ccccc2)c1[N+](=O)[O-] | -9% |
| COc1ccc(CC(=O)Nc2ccc3c(c2)CCC3)cc1 | -13% |
| O=C(CSCc1ccc(Cl)cc1)Nc1ccc(S(=O)(=O)N2CCOCC2)cc1 | -11% |
| S=C(NCc1cccnc1)Nc1cccc(Cl)c1 | -1% |
| O=C(O)c1ccc(CN2C(=O)c3ccc(Oc4ccc([N+](=O)[O-])cc4)cc3C2=O)cc1 | -8% |
| O=C1CCC(=O)N1c1ccc(NC2CCN(Cc3ccccc3)CC2)c([N+](=O)[O-])c1 | -7% |
| CC(Cc1ccccc1)N1C(=O)c2cccc([N+](=O)[O-])c2C1=O (stereo unspecified) | -6% |
| COc1cc(-n2nnnc2SC)c(OC)cc1Cl | -7% |
| COc1ccc(Cn2c(SCc3ccc(C(=O)NCc4ccccc4F)cc3)nc3cccnc32)cc1 | 4% |
| O=C(CNC(=O)c1ccc(-c2ccccc2)cc1)OCc1ccc(Br)cc1 | -2% |
| CCOC(=O)CSc1nc2cc(OCC)ccc2cc1C#N | -6% |
| CN1CCN(C(=O)Nc2cccc(-c3ccccc3)c2)CC1 | 11% |
| CCCc1nnc(SCC(=O)Nc2ccc(Cl)cc2Cl)o1 | 14% |
| CCN(CC)CCNC(=O)c1ccc(NC(=O)c2cccc(S(=O)(=O)Nc3ccc(C)cc3)c2)cc1 | -2% |
| Cc1nc(Nc2c(Cl)cccc2Cl)sc1C(=O)Nc1ccccc1 | -8% |

(cont.)
| Structure | VDR inh |
| --- | --- |
| CC(NC(=O)Cn1nc(C(=O)O)c2ccccc2c1=O)C12CC3CC(CC(C3)C1)C2 (stereo unspecified) | -7% |
| Cc1sc2nc(CN3CCOCC3)nc(N3CCOCC3)c2c1C | 6% |
| O=C(CSc1nnc(-c2ccc(S(=O)(=O)N3CCCC3)cc2)o1)NCc1ccccc1 | 9% |
| Cc1ccc(OCCSc2ncccn2)c(C)c1 | 11% |
| CC(C)Cn1cnc2c(=O)oc3ccccc3c21 | -8% |
| CC(C)N=C1SCC(C)(/C=N/O)S1 (stereo unspecified) | -1% |
| Cn1c(Cc2ccccc2)nnc1SCc1cc(=O)n2ccsc2n1 | -14% |
| CCCCOc1c(Cl)cc(C(=O)N(Cc2ccc(C)o2)C2CCS(=O)(=O)C2)cc1Cl (stereo unspecified) | -5% |
| O=C(CSc1ccccc1)N1CCN(S(=O)(=O)c2cccs2)CC1 | 18% |
| CC(C)(CO)CNC(=O)CCc1nnc(C2(c3ccc(Cl)cc3)CCC2)o1 | -28% |
| COc1cc2c(cc1NC(=O)C(C)NCc1ccccc1)oc1ccccc12 (stereo unspecified) | 8% |
| Cc1nc2cc(NC(=O)N3c4ccccc4CC3C)ccc2o1 (stereo unspecified) | -8% |
| Cc1ccc(OCc2cc(C(=O)NCC3COCCO3)no2)cc1C (stereo unspecified) | -6% |
| Cc1cc(=O)[nH]c(SCC(=O)NCC2CCCCC2)c1C#N | -4% |
| CCn1cc(S(=O)(=O)N2CCN(c3ccc(Cl)cc3)CC2)cn1 | 1% |
| Cc1ccc(S(=O)(=O)N2CCN(C(=O)C3=COCCO3)CC2)cc1C | -5% |
| CCOC(=O)C1CCCN(C(=O)c2cc(S(=O)(=O)N3CCCCCC3)ccc2OC)C1 (stereo unspecified) | -10% |
| COc1ccc2nc3cc(Cl)ccc3c(Nc3ccc(O)c(CN4CCN(C)CC4)c3)c2c1 | ? |
| COc1cccc(NC(=O)COC(=O)c2cccnc2)c1 | 7% |
| O=C(C1=C(O)C(=O)N(c2ccccc2)C1c1ccc([N+](=O)[O-])cc1)c1cccs1 (stereo unspecified) | ? |

Rewritten as labelled records: part of the list above.
> Cc1ccc2nc(SCC(=O)NCc3ccco3)c(C)cc2c1
  VDR inh: -13%
> CC(C)(CO)CNC(=O)CCc1nnc(C2(c3ccc(Cl)cc3)CCC2)o1
  VDR inh: -28%
> COc1cc2c(cc1O)CCN(C(=O)c1ccco1)C2C (stereo unspecified)
  VDR inh: 11%
> COc1cc(-n2nnnc2SC)c(OC)cc1Cl
  VDR inh: -7%

More compounds:
| Structure | VDR inh |
| --- | --- |
| COCCn1c(SCC(=O)NCc2ccccc2)nc2ccccc21 | -4% |
| COn1c(SC2CCCCC2)nc2ccccc2c1=O | -4% |
| COc1ccc(C)cc1NC(=O)N1CCN(S(=O)(=O)c2ccc3c(ccn3C)c2)CC1 | 6% |
| CC1=NOC(=O)/C1=C\c1ccc(-c2ccc(Cl)c(C(=O)O)c2)o1 | ? |
| O=C(O)c1ccc2c(c1)C(=O)N(Cc1ccccc1)C2=O | 6% |
| Cc1[nH]nc2c1C1(CCC(c3ccccc3)CC1)C(C#N)=C(N)O2 (stereo unspecified) | -2% |
